Bioassay records from PubChem BioAssay.
Mtb MenB inh – inhibitors of Mycobacterium tuberculosis MenB enzyme | P9WNP5 | MenB enzyme assay, absorbance read-out; some hits fall short of the stated cut | inhibition, %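 (about 12 µg/mL by stock and volumes)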 | hit rate 0.43% among 100,000 | AID 540299;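 active means mean of two replicates above 30%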;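 further: 0% = no compound and 100% = wells with inactive enzyme; the first replicate is given; strong numbers were not always called active; inactives centre near -10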
Target sequence (P9WNP5 whole entry, looked up): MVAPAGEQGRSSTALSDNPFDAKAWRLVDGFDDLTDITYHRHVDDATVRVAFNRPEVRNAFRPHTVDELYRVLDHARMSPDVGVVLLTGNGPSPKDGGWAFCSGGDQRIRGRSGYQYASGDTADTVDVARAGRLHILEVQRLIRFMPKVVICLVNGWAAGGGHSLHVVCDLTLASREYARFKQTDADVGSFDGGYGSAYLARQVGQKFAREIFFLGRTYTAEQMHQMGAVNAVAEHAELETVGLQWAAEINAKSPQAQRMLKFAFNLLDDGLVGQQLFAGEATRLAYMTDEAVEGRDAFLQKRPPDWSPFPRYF
PV pol inh – poliovirus RNA polymerase inhibition. P03300. poliovirus polymerase elongation, fluorescence polarization; stronger effect = lower value. % elongation, % (compound at 16.7 µg/mL). hit rate 0.66% among 150,000. AID 588519; in the data active means % elongation below about 90%; further: some results filed as inactive read as strong as hits
MbtI inh – blocks the Mycobacterium tuberculosis siderophore enzyme MbtI. hit rate 0.89% among 100,000. P9WFX0. purified MbtI enzyme, fluorescence intensity read-out. inhibition, %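 (about 17 µg/mL by stock and volumes)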;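 active means above 50% in both replicates, above 80% if mildly self-fluorescent; inactive means the rest, strongly fluorescent compounds included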;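 further: 0% = mean of negative and 100% = mean of positive controls; one replicate is shown; some compounds called inactive have numbers as strong as hits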
Target sequence (P9WFX0 whole entry, looked up): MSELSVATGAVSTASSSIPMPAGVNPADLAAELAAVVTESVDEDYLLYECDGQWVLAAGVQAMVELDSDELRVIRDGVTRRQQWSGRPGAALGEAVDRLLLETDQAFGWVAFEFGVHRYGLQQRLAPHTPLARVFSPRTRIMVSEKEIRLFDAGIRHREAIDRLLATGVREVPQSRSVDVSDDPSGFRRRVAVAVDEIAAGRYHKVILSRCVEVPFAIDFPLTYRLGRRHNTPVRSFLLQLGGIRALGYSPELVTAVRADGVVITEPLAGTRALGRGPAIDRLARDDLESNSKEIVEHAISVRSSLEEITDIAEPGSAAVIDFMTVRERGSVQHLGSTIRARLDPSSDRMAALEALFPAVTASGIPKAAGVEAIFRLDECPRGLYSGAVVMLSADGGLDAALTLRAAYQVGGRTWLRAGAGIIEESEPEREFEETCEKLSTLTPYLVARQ
PV pol inh intensity – second read-out of PV pol inh, no call of its own (marks repeat the call); % elongation; measured here: total intensity read-out; formula for this scale not given here;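 total fluorescence in place of polarization; lower means less elongation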
An asterisk follows results filed as active; . = no result given; & = joins results of further samples.

SMILES	Mtb MenB inh	PV pol inh	PV pol inh intensity	MbtI inh
CCn1c(=O)n(Cc2ccco2)c(=O)c2sc3ccccc3c21	8.3	102.0	104.0	22.2
O=C(NCCCO)c1ccncc1	13.8	99.0	102.0	4.9
CN(C)C(=O)C[n+]1ccc(/C=N/O)cc1	9.4	104.0	99.0	11.0
CC1CN(C(=O)/C=C/c2ccc3c(c2)OCO3)CC(C)O1 (configuration not stated)	2.3	101.0	103.0	-27.3
Clc1nc2sccn2c1/C=N/n1cnc2ccccc21	.	101.0	102.0	-3.0
Cc1cc(C)n2nc3nc(N4CCOCC4)nc(-c4ccc(C(C)C)cc4)c3c2n1	-20.2	103.0	99.0	-1.7
CC1(C)COC(c2sccc2C(=O)O)=N1	3.4	103.0	109.0	-2.9
CC1=CC(C)(C)CC(=S)N1c1cccc(F)c1	-2.9	101.0	97.0	.
O=C(CSc1nnc2c3c4c(sc3ncn12)CCCC4)Nc1nccs1	13.3	101.0	104.0	-2.5
CCN(C(=O)c1cc2cccc(OC)c2oc1=O)C1CCCCC1	0.2	101.0	102.0	1.1
O=C(NCCCc1nc2ccccc2[nH]1)c1ccc(F)cc1	-5.4	102.0	104.0	-8.9
Cc1cc(C(=O)OCC(=O)N(C)c2ccccc2)c(C)o1	.	103.0	100.0	1.3
CCN(CC(=O)c1c(N)n(Cc2ccccc2)c(=O)n(CC)c1=O)Cc1nc2ccccc2c(=O)[nH]1	-35.3	109.0	113.0	-21.4
CCC1=Nc2cc(C(=O)N3CCc4ccccc43)ccc2Sc2ccccc21	-10.0	104.0	107.0	-12.6
CN(C)C(=O)CSc1ncnc2sc3c(c12)CCCC3	8.0	108.0	121.0	6.3
O=C(NC(=S)Nc1ccc2c(c1)OCO2)c1ccccc1	-9.4	99.0	103.0	10.1
COc1cccc(-c2noc(COC(=O)c3ccccc3-c3ccccc3C#N)n2)c1	-31.2	101.0	99.0	-10.9
COC(=O)CNC(=O)NC12CC3CC(CC(C3)C1)C2	3.1	101.0	104.0	-4.0
CCCCC/C=C\CC1OC1CCCCCCCC(=O)O (configuration not stated)	-7.6	99.0&98.0	102.0&101.0	-2.1
CCCCCCOc1ccccc1C(N)=O	1.6	99.0	102.0	-0.3
CCOC(=O)N1CCN(C(=O)c2cc3c(ccc4ccccc43)oc2=O)CC1	-14.7	100.0	100.0	80.3
CCOC(=O)N1CCC(=NNC(=O)COc2ccc(C)cc2C(C)C)CC1	-22.2	97.0	93.0	-6.4
O=c1c(Cl)c(Cl)cnn1C1CCS(=O)(=O)C1 (configuration not stated)	1.1	98.0	98.0	-6.1
C=C(C)Cc1c(COC)nc(-c2ccc(C)c(Cl)c2)nc1OC(=O)N(C)C	-0.1	103.0	103.0	3.0
Cn1c(Cc2nn(C)c(=O)c3ccccc23)nnc1SCC(=O)c1ccc(Cl)cc1Cl	-16.9	106.0	97.0	-11.4
(more compounds)
SMILES	Mtb MenB inh	PV pol inh	PV pol inh intensity	MbtI inh
CSc1n[nH]c2nc3c(c(=O)n12)C1(CCCC1)Cc1ccccc1-3	0.8	100.0	102.0	-162.2
COc1ccc2oc(=O)cc(CN(C)CCC#N)c2c1	7.7	101.0	102.0	15.7
O=C(CSC(=O)c1ccccc1)NC1CCCCC1	.	99.0	104.0	2.2
Cc1ccc2[nH]c(=O)c3cc(C(=O)NCCC(C)C)sc3c2c1	-15.5	103.0	109.0	-44.9
Cc1ccc(CNC(=O)c2ccc(Cn3c(=O)[nH]c4ccccc4c3=O)cc2)o1	9.5	100.0	100.0	12.9
O=C(O)c1ccccc1C(=O)N1CCN(c2ccncc2)CC1	6.9	101.0	104.0	-0.5
Cc1cc(C)c2[nH]c(=O)c(CN(Cc3ccco3)C(=S)NCCCN3CCOCC3)cc2c1	-19.7	101.0	99.0	-15.7
CCN(CC)S(=O)(=O)c1ccc(NC(=O)c2noc3c2COc2ccccc2-3)cc1	-23.8	106.0	108.0	-11.5
Cc1cc(O)c(C=O)c2c1C(=O)Oc1c(C)c(O)c3c(c1O2)C(O)OC3=O (configuration not stated)	6.6	66.0*	58.0*	-32.7
CCc1c(C(=O)OC)nnn1-c1nonc1N	-13.4	105.0	102.0	.
O=C(CCCSc1nnc(-c2ccc3c(c2)OCO3)o1)c1cccs1	-14.2	103.0	92.0	8.7
O=C(c1ccc(CNS(=O)(=O)c2ccc(Br)cc2)cc1)N1CCCC1	-3.8	101.0	105.0	-1.8
NCc1ccc(CN2CCCC2)cc1	4.0	101.0	102.0	8.0
O=C(O)c1ccc(CSc2nnc(-c3ccncc3)n2CC2CCCO2)cc1 (configuration not stated)	-34.1	105.0	103.0	-6.0
O=C(Nc1ccc(OC(F)(F)F)cc1)OC1CN(C(c2ccccc2)c2ccccc2)C1	-49.3	107.0	106.0	-10.7
O=C(CCn1c(=S)[nH]c2cc3c(cc2c1=O)OCO3)NC1CCCC1	-0.2	103.0	104.0	-6.6
CC1Oc2ccccc2C=C1/C=C(\C#N)C(=O)NC1CCS(=O)(=O)C1 (configuration not stated)	-148.6	105.0	105.0	10.3
O=C1CC(c2ccccc2)Oc2ccc(F)cc21 (configuration not stated)	-7.5	97.0	96.0	74.5
Nc1nonc1-n1nnc(C(=O)O)c1-c1cccc2ccccc12	-36.7	99.0	102.0	0.4
CCCc1cc(=O)oc2cc(OC(=O)/C=C/c3cccs3)ccc12	-4.7	108.0	116.0	-22.9
CC12CN(NC=O)C3(C#N)CC1CCC23C (configuration not stated)	-17.0	102.0	100.0	2.2
Cc1noc(C)c1C(=O)OCC(=O)C12CC3CC(CC(C3)C1)C2	6.8	101.0	99.0	16.0
c1ccc(CCN2CN=C(Nc3nc4ccccc4s3)NC2)cc1	-24.0	102.0	102.0	-5.1
CC1CC(C)CN(Cn2ncn(C)c2=S)C1 (configuration not stated)	6.7	103.0	104.0	33.3
N#CCc1ccc(Oc2ncnc3c2oc2ccccc23)cc1	-17.8	105.0	103.0	-3.6

Whole records from above:
Record of O=C(c1ccc(CNS(=O)(=O)c2ccc(Br)cc2)cc1)N1CCCC1 : Mtb MenB inh: -3.8; PV pol inh: 101.0; PV pol inh intensity: 105.0; MbtI inh: -1.8
Record of CSc1n[nH]c2nc3c(c(=O)n12)C1(CCCC1)Cc1ccccc1-3 : Mtb MenB inh: 0.8; PV pol inh: 100.0; PV pol inh intensity: 102.0; MbtI inh: -162.2

Additional structures follow:
SMILES	Mtb MenB inh	PV pol inh	PV pol inh intensity	MbtI inh
c1cncc(-c2nnc(SCC3CCCCC3)o2)c1	18.5	101.0	103.0	11.9
CCOC(=O)c1ccc(/N=C/N(C)C)o1	-19.4	104.0	96.0	-5.5
COc1cc(CC(C#N)(CO)c2nc3ccccc3[nH]2)ccc1OC(F)F (configuration not stated)	3.9	107.0	120.0	-9.7
COc1ccc(/C=C(\C#N)C(=O)OCc2nc(-c3ccc(C)cc3)no2)cc1	-24.3	107.0	105.0	-8.8
O=C1CCC(C(=O)O)CC1	-50.0	107.0	99.0	-6.9
Cc1ccc(C)c2c1c1ccccc1n2C	4.6	102.0	102.0	8.2
CCN1CCN(C(=O)c2cc3c(=O)n(C)c4ccccc4c3n2C)CC1	-6.3	98.0	100.0	13.6
COC(=O)CN1CCN(c2nc3c(c(=O)[nH]c(=O)n3C)n2Cc2ccc(Cl)c(Cl)c2)CC1	-20.8	101.0	100.0	18.4
O=C(COc1cccc(Cl)c1)Nc1ccc(OC(F)(F)F)cc1	.	99.0	93.0	-9.1
CN(C)S(=O)(=O)N(C)c1ccccc1	5.7	107.0	112.0	.
COc1cc(C=Nc2ccccc2)cc(OC)c1O	-28.0	99.0	102.0	-1.2
CCOc1ccc(/C=C/C(=O)Nc2nc(-c3ccc(C)cc3)c(C)s2)cc1	-18.2	102.0	95.0	30.6
Cc1ccc(C)c(NC(=O)CN(C)C(=O)c2ccccn2)c1	-12.8	102.0	109.0	-16.2
CCc1ccccc1NC(=O)Cn1nnc(C(=O)O)c1C(=O)O	-0.1	98.0	104.0	-6.3
C=CCNC(=O)C1CC=CCC1C(=O)Nc1ccccc1C (configuration not stated)	-40.2	100.0	100.0	-7.0
Cc1nn(-c2ccc(F)cc2)c2ncc(C(=O)N3CCN(C(=O)c4ccco4)CC3)c(Cl)c12	-15.9	104.0	108.0	174.1
Cc1ccc2onc(CNC(=O)N3CCC(C(N)=O)CC3)c2c1	-1.8	103.0	104.0	-5.2
Cc1ccc(S(=O)(=O)N2CCCC(C(=O)N3CCCCC3)C2)cc1 (configuration not stated)	12.1	103.0	102.0	-0.1
CC(C)(C)OC(=O)N/N=C/c1cccc(O)c1	-30.3	103.0	99.0	-0.9
CCc1nc2c(c(=O)c3ccccc3n2C)c(=O)n1Cc1ccco1	2.6	98.0	122.0	7.4
CN(C)S(=O)(=O)c1ccc(C(=O)Oc2cc(=O)[nH]c3ccccc23)cc1	-42.0	89.0*	85.0*	-152.0
CCC(C)(C)C1CCC(N)CC1 (configuration not stated)	-0.3	105.0	105.0	-8.8
O=S1(=O)C=CC(N2CCCCC2)C1 (configuration not stated)	.	104.0	96.0	2.1
CCN(CC)C(NC(=O)c1ccccc1)C(=O)c1ccccc1 (configuration not stated)	8.9	100.0	104.0	-8.8
COc1cc(CN2CCN(C(=O)Cc3ccccc3)CC2)cc(OC)c1OC	-20.8	103.0	103.0	-16.0
Additional records follow.
SMILES	Mtb MenB inh	PV pol inh	PV pol inh intensity	MbtI inh
O=C(O)C(Cc1cnc[nH]1)N1C(=O)C2C3C=CC(C3)C2C1=O (configuration not stated)	-15.6	101.0	99.0	-16.4
N#Cc1cccnc1NNC(=O)Nc1cccc2ccccc12	-12.4	101.0	101.0	16.5
CCS(=O)(=O)c1ccc2oc(SCC(=O)NCCc3ccccc3)nc2c1	1.0	98.0	102.0	-1.4
CCCCN1CC(O)=C(c2ccccc2)C1=N	-34.7	102.0	103.0	0.5
CCOC(=O)c1[nH]c(CSc2nnc(-c3ccc(OC)cc3)o2)c(C(=O)OCC)c1C	-5.8	106.0	106.0	7.1
CN(c1nc(N)c2c(N)nc3c(c2c1C#N)CC(=O)N3Cc1cccs1)C1CCS(=O)(=O)C1 (configuration not stated)	-6.0	114.0	145.0	-249.3
Nc1nc2c(-c3ccccc3)c(C(F)(F)F)sc2s1	-27.4	103.0	113.0	0.1
CCCC(=O)NC(=S)Nc1cc(-c2nc3cc(CC)ccc3o2)ccc1C	-51.3	102.0	101.0	-24.9
COc1ccc2cc3cc(C(=O)NCCCN4CCCCCC4)oc3nc2c1	-17.4	98.0	101.0	107.3
CC(OC(=O)c1ccc(CN2CCCC2=O)cc1)C(=O)c1ccc(F)cc1 (configuration not stated)	-1.8	96.0	102.0	7.7
O=C(COc1ccc(Cl)cc1Cl)Nc1nnc(C2=COCCO2)o1	-21.4	99.0	102.0	-0.8
O=C(O)CCNC(=O)c1ccccc1	15.8&0.7	97.0&100.0	100.0&101.0	-6.1&-11.7
O=C(Nc1ccc2c(c1)OCC(=O)N2Cc1ccccc1)c1ccco1	9.0	101.0	102.0	19.4
N#CC(C(=O)Nc1cccc(C(F)(F)F)c1)=C1CCCCCC1	-22.4	103.0	98.0	0.0
C=CCc1ccccc1OCC(O)CN1CCN(CC)CC1 (configuration not stated)	.	101.0	107.0	-8.5
Cc1cc(C)cc(NC(=O)Nc2ccccc2C(=O)Nc2cc(C)cc(C)c2)c1	-31.5	101.0	105.0	-2.8
O=C(C[n+]1cccc(NC(=O)c2ccccc2)c1)c1ccccc1	-27.8	102.0	102.0	6.2
CCN(C(=O)Cn1cc(C(=O)C2CC2)c2ccccc21)c1ccccc1	-13.8	95.0	102.0	.
O=C(c1ccccc1)N(C(=O)N1CCCCC1)c1ccccc1	-3.2	.	.	3.2
CCCn1c(C2CC(=O)N(c3ccc(CC)cc3)C2)nc2ccccc21 (configuration not stated)	-18.3	104.0	104.0	-6.6
CN(C(=O)Cn1c(=O)oc2ccccc21)c1ccccc1	8.1	.	.	3.3
Cc1cccc(CSC2=NCCN2C(=O)C2CC2)c1	-13.6	104.0	107.0	-4.6
O=S(=O)(NCc1ccco1)c1cccc(-n2cnnn2)c1	9.9	99.0	99.0	-5.1
O=C(O)C1CC(=O)N(Cc2ccccc2)C1c1ccccc1 (configuration not stated)	-17.8	107.0	102.0	.
Cc1ccc(S(=O)(=O)c2ccc(-n3nc(C)cc3N)cc2)cc1	.	102.0	98.0	-0.2
COc1ccc(Cl)cc1-n1nnc(-c2nc(-c3ccc4c(c3)OCO4)no2)c1N	-0.7	102.0	104.0	-14.5
O=C(NCC1CCCO1)c1cc2ccccc2nc1Cl (configuration not stated)	.	99.0	92.0	7.6
C=CCNC(=O)CSc1nc(-c2ccco2)cc(C(F)(F)F)n1	-34.6	103.0	102.0	-9.4

Reformatted bar-delimited: part of the list above
Structure | Mtb MenB inh | PV pol inh | PV pol inh intensity | MbtI inh
CCOC(=O)c1[nH]c(CSc2nnc(-c3ccc(OC)cc3)o2)c(C(=O)OCC)c1C | -5.8 | 106.0 | 106.0 | 7.1
O=C(c1ccccc1)N(C(=O)N1CCCCC1)c1ccccc1 | -3.2 | . | . | 3.2

Shown as comma-separated lines: entries from further up
Molecule,Mtb MenB inh,PV pol inh,PV pol inh intensity,MbtI inh
O=C(c1ccccc1)N(C(=O)N1CCCCC1)c1ccccc1,-3.2,.,.,3.2
Cc1cc(C)cc(NC(=O)Nc2ccccc2C(=O)Nc2cc(C)cc(C)c2)c1,-31.5,101.0,105.0,-2.8
